MLL AF4-AF9 inh = MLL-AF4/AF9 protein interaction inhibition | AID 651704 | AlphaScreen, biotin-AF4 peptide binding to FLAG-AF9 | hit rate 0.47% among 350,000 | P42568 | inhibition, % at 10 µM;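 active means every replicate reaching a set inhibition limit, whatever the replicate mean, cut at about 25% in these data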;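 further: 0% = plate neutral control median and 100% = total signal loss; the record names both 10 and 1 µM as test concentration; the first replicate is given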
Target sequence (P42568 whole entry, looked up): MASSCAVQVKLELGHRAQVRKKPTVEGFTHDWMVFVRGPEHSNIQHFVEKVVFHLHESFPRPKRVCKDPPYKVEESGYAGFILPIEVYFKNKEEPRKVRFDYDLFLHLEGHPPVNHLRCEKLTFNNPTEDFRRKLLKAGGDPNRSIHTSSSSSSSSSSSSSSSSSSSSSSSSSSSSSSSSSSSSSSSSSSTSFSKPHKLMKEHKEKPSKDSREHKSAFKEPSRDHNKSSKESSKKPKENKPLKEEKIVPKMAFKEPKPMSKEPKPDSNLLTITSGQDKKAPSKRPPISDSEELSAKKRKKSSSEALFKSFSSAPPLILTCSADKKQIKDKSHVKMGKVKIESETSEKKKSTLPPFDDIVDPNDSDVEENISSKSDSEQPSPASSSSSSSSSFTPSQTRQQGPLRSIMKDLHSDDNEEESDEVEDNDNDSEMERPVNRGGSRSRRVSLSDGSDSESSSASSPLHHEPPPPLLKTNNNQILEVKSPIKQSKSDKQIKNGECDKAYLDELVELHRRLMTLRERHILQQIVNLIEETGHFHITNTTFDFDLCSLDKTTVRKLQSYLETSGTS
rRNA inh HTS = inhibitors of bacterial rRNA selective over humanized ribosomes | E. coli WT GFP vs humanized-ribosome RFP mutants, fluorescence, 24 h; active compounds read low; DMSO median 0, no signal -100 | GFP signal change (wild-type ribosome), % (test concentration not listed) | hit rate 1.6% among 350,000;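 active means significant combined selectivity score with lowered wild-type GFP, culture density cut under 30%, mutant RFP and density less affected; inactive means any of these conditions unmet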; further: one replicate is shown; some compounds called inactive have numbers as strong as hits
rRNA inh HTS OD600 = also measured in rRNA inh HTS; calls as there; OD600 change, %; measured here: OD600 growth;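 optical density of the mix in the first replicate; 0 = DMSO median and -100 = no signal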
rRNA inh HTS RFP = recorded beside rRNA inh HTS, whose call it bears; RFP signal change, %; measured here: RFP humanized mutant strains;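 first replicate; 0 = DMSO median and -100 = no signal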
Starred values were filed as active, the others as inactive; & = joins results of further samples. An excerpt; the hit share may differ from the screen's.

1) COc1ccc(NC(=O)N(C)C[C@H]2OCc3ccccc3-c3ccccc3C(=O)N([C@H](C)CO)C[C@H]2C)cc1
2) COc1ccc(NC(=O)N(C)C[C@@H]2OCCCC[C@H](C)Oc3ccc(NC(=O)CCCN(C)C)cc3C(=O)N([C@H](C)CO)C[C@@H]2C)cc1
3) C[C@H](CO)N1C[C@H](C)[C@@H](CN(C)Cc2ccncc2)OCCCC[C@H](C)Oc2ccc(NS(C)(=O)=O)cc2C1=O
4) CN(C)c1nc(=NCc2cccs2)ss1
5) C[C@H](CO)N1C[C@H](C)[C@H](CN(C)Cc2ccncc2)Oc2ncc(C#Cc3ccc(F)cc3)cc2C1=O

Screen / compound no.,1,2,3,4,5
MLL AF4-AF9 inh,-2.8,-0.3,-6.5,-13,4.7
rRNA inh HTS,3,3,0,-45,-9
rRNA inh HTS OD600,8,0,1,-77,-23
rRNA inh HTS RFP,-0.4,-2.8,1.1,-12,14

6) CCCNC(=O)Nc1ccc2c(c1)C(=O)N(C)C[C@H](OC)[C@@H](C)CN(C(=O)C1CC1)[C@H](C)CO2
7) C[C@@H]1CN([C@@H](C)CO)C(=O)c2cc(C#Cc3ccccc3)cnc2O[C@H]1CN(C)CC1CCOCC1
8) CN(C)C(=O)c1ccc(-c2ccc([C@H]3[C@@H](CO)N4CCCCN(C(=O)C5CC5)C[C@H]34)cc2)cc1
9) C[C@H](CO)N1C[C@H](C)[C@H](CN(C)C(=O)C2CCOCC2)Oc2ncc(Br)cc2C1=O
10) CO[C@@H]1CN(C)C(=O)c2ccc(NC(=O)C3CCCC3)cc2OC[C@H](C)NC[C@H]1C

Screen / compound no.,6,7,8,9,10
MLL AF4-AF9 inh,-0.8,18,3.4,-1.0,-2.6
rRNA inh HTS,4,5,-1,4,3
rRNA inh HTS OD600,-1,12,5,2,9
rRNA inh HTS RFP,-0.2,0.4,2.0,-2.0,-1.6

11) C[C@@H]1CN([C@@H](C)CO)C(=O)c2cc(NS(=O)(=O)c3ccccc3)ccc2O[C@H]1CN(C)S(=O)(=O)c1cccs1
12) CCC(=O)NC[C@@H]1[C@H](c2ccccc2)[C@@H](CO)N1C(=O)C1CC1
13) CC(=O)N(C)C[C@H]1Oc2cc(-c3ccccc3F)ccc2S(=O)(=O)N([C@@H](C)CO)C[C@H]1C
14) COc1ccccc1Cn1c(C)c(C(=O)NCc2ccc3c(c2)OCCO3)sc1=O
15) CCCC(=O)Nc1ccc2c(c1)C(=O)N(C)C[C@@H](OC)[C@H](C)CN(C(=O)c1ccccn1)[C@H](C)CO2

Screen / compound no.,11,12,13,14,15
MLL AF4-AF9 inh,-5.5,-5.2,-3.2,-1.3,-0.1
rRNA inh HTS,-1,1,-7,-16,0
rRNA inh HTS OD600,-7,-2,-2,8,-5
rRNA inh HTS RFP,2.9,-3.1,1.4,-8.1,-0.7

16) O=C(C[C@@H]1C[C@@H]2c3cc(NC(=O)c4ccc5c(c4)OCO5)ccc3O[C@@H]2[C@@H](CO)O1)NC1CCCC1
17) COC(=O)[C@]12C[C@H](CC(=O)NCc3ccc(OC)c(OC)c3)C(=O)N(Cc3ccccc3)C1=C[C@H](C(C)C)O[C@@H]2C1CC1
18) O=C(C[C@H]1C=C[C@@H](NC(=O)c2ccc(F)cc2)[C@H](CO)O1)NCCc1ccccc1
19) CCCNC(=O)N(C)C[C@H]1Oc2ncc(-c3ccccc3F)cc2C(=O)N([C@H](C)CO)C[C@H]1C
20) Nc1ncnc2c1ncn2[C@@H]1O[C@H](C(=O)Nc2ccc(C(=O)N3CCCCC3)cc2)[C@@H](O)[C@H]1O

Screen / compound no.,16,17,18,19,20
MLL AF4-AF9 inh,1.7,3.7,-1.9,-1.8,-1.9
rRNA inh HTS,-3,-2,0,-3,2
rRNA inh HTS OD600,-8,-17,0,6,-2
rRNA inh HTS RFP,2.1,-1.5,-2.8,-1.6,-0.8

21) COc1ccc(NC(=O)N(C)C[C@@H]2Oc3cc(-c4cccc(C(=O)N(C)C)c4)ccc3S(=O)(=O)N([C@H](C)CO)C[C@@H]2C)cc1
22) COc1cccc(-c2ccc(C3[C@H]4CNC[C@@H]3N4Cc3cc(F)ccc3F)cc2)c1 (some centres not stated)
23) COc1ccc2c3c(n(C)c2c1)[C@@H](CO)N(C(=O)NC(C)C)CC31CN(Cc2nccs2)C1
24) Cc1noc(C)c1S(=O)(=O)N(C)C[C@H]1OCCCC[C@H](C)Oc2ccc(NC(=O)Cc3ccccc3)cc2C(=O)N([C@H](C)CO)C[C@H]1C
25) C[C@H](CO)N1C[C@H](C)[C@H](CN(C)Cc2ccc(C(=O)O)cc2)Oc2ccc(NS(C)(=O)=O)cc2C1=O

Screen / compound no.,21,22,23,24,25
MLL AF4-AF9 inh,1.0,1.9&-3.9,-0.3,-0.4,-2.9
rRNA inh HTS,0,2&-58,-3,1,3
rRNA inh HTS OD600,5,-31&-75,0,-6,-2
rRNA inh HTS RFP,-2.9,24&-13,-0.7,-2.4,-0.9

26) COc1ccc(C(C(=O)c2ccccc2)c2ccccc2)cc1 (configuration not stated)
27) CNC[C@H]1Oc2c(NS(C)(=O)=O)cccc2C(=O)N([C@H](C)CO)C[C@@H]1C
28) CN(C)C(=O)c1ccc(-c2ccccc2[C@@H]2[C@@H](C#N)N(C(=O)C3CCCC3)[C@H]2CO)cc1
29) C[C@H](CO)N1C[C@H](C)[C@H](CN(C)S(C)(=O)=O)Oc2ccc(NC(=O)C3CC3)cc2C1=O
30) O=C(C[C@@H]1C=C[C@@H](NC(=O)C2CC2)[C@@H](CO)O1)NC1CCC1

Screen / compound no.,26,27,28,29,30
MLL AF4-AF9 inh,-3.3,-1.7,-1.8,-1.2,-0.9
rRNA inh HTS,-12,4,3,3,1
rRNA inh HTS OD600,-14,11,17,3,2
rRNA inh HTS RFP,-6.2,-1.3,0.8,0.5,-0.8

31) CCCC(=O)Nc1ccc2c(c1)OC[C@@H](C)N(C)C[C@@H](C)[C@@H](OC)CN(C)C2=O
32) C[C@H](CO)N1C[C@H](C)[C@@H](CN(C)C(=O)Cc2ccccc2)Oc2ncc(C#CCN(C)C)cc2C1=O
33) O=C(C[C@@H]1CC[C@@H]2[C@H](COC[C@@H](O)CN2C(=O)Nc2ccc(Cl)c(Cl)c2)O1)NCc1ccncc1
34) Cc1ccn(CCC(=O)N2CCCC(N3CCN(c4ccccc4C)CC3)C2)n1 (configuration not stated)
35) COC(=O)C[C@H]1C[C@H]2c3cc(N)ccc3O[C@H]2[C@H](CO)O1

Screen / compound no.,31,32,33,34,35
MLL AF4-AF9 inh,-2.7,-0.4,1.2,-3.2,4.2
rRNA inh HTS,2,1,-55,11,1
rRNA inh HTS OD600,9,8,-72,12,-6
rRNA inh HTS RFP,-0.8,-6.3,-19,-0.9,-1.5

36) CO[C@@H]1CN(C)C(=O)c2cc(NS(=O)(=O)c3ccc(Oc4ccccc4)cc3)ccc2OC[C@H](C)NC[C@@H]1C
37) COc1ccccc1C(=O)Nc1nnc([C@H]2C[C@H](O)[C@@H](CO)O2)s1
38) COc1ccc(S(=O)(=O)N(C)C[C@H]2Oc3ccc(NC(=O)C4CCCCC4)cc3CC(=O)N([C@@H](C)CO)C[C@@H]2C)cc1
39) CCN(CC)CCN(C(=O)/C=C/c1cccs1)c1nc2ccc(OC)cc2s1
40) CN(C)c1ccc(CC(=O)N2CCCCC2c2cc(C(=O)Nc3cccc(C#N)c3)no2)cc1 (configuration not stated)

Screen / compound no.,36,37,38,39,40
MLL AF4-AF9 inh,-3.5,0.2,0.5,4.0,6.8
rRNA inh HTS,-2,5,-5,10,8
rRNA inh HTS OD600,-8,9,-1,11,16
rRNA inh HTS RFP,4.7,0.6,0.1,-0.1,-0.8

41) COCC(=O)N[C@H]1C=C[C@H](CC(=O)NCc2ccccc2OC)O[C@H]1CO
42) CN1OC[C@@H]2CN(Cc3ccc(Cl)cc3)[C@H](c3cccc(Br)c3)C[C@@H]21
43) CN(C)CCCNC(=O)C[C@@H]1C=C[C@H](NC(=O)Cc2cccnc2)[C@@H](CO)O1
44) C[C@@H]1CN([C@@H](C)CO)S(=O)(=O)c2ccc(-c3ccncc3)cc2O[C@@H]1CN(C)C(=O)Nc1ccc(C(F)(F)F)cc1
45) CN(C)C(=O)c1cccc(-c2ccc3c(c2)[C@H]2[C@H](CCN2C(=O)c2cnccn2)[C@H](CO)N3)c1

Screen / compound no.,41,42,43,44,45
MLL AF4-AF9 inh,-0.3,-0.8,-1.5,-0.6,-9.0
rRNA inh HTS,1,3,0,-10,7
rRNA inh HTS OD600,-7,-20,-1,-28,23
rRNA inh HTS RFP,0.2,59,-1.5,-3.9,-1.0

46) C[C@@H]1CN([C@H](C)CO)C(=O)c2cccc(NS(=O)(=O)c3cn(C)cn3)c2O[C@H]1CN(C)Cc1ccccc1
47) CCCNC(=O)N1CC2(C1)CN(C(=O)CCC)[C@@H](CO)c1[nH]c3cc(OC)ccc3c12
48) C=CCN1[C@@H](C)[C@@H](c2ccccc2)Oc2c(Cl)cccc2S1(=O)=O
49) Cc1ccc([C@H]2C[C@@H](n3cc(-c4ccc(F)cc4)nn3)[C@H](O)CN2CC2CCCCC2)cc1
50) COc1ccccc1-c1noc2c1C(=O)N(Cc1cn(-c3ccccc3)nn1)CC2

Screen / compound no.,46,47,48,49,50
MLL AF4-AF9 inh,2.5,2.9,-4.5,1.5,-3.7
rRNA inh HTS,1,0,-7,8,2
rRNA inh HTS OD600,13,5,-42,-4,5
rRNA inh HTS RFP,-0.8,0.0,-8.3,-8.0,-4.6

51) CC(C)NC(=O)N(C)C[C@@H]1OCCCC[C@@H](C)Oc2ccc(NS(C)(=O)=O)cc2C(=O)N([C@H](C)CO)C[C@@H]1C
52) C[C@H](CO)N1C[C@H](C)[C@@H](CN(C)CC2CC2)Oc2c(NC(=O)NC3CCCCC3)cccc2C1=O
53) O=C(c1ccncc1)N1CC[C@@H]2[C@H](CO)Nc3ccc(-c4ccccc4)cc3[C@@H]21
54) Cc1noc(C)c1NC(=O)Nc1ccc2c(c1)C(=O)N([C@H](C)CO)C[C@H](C)[C@H](CN(C)Cc1ccccc1)OCCCC[C@H](C)O2
55) CO[C@@H]1CN(C)C(=O)c2cc(NC(=O)C3CCCC3)ccc2OC[C@@H](C)N(Cc2nccs2)C[C@H]1C

Screen / compound no.,51,52,53,54,55
MLL AF4-AF9 inh,-2.2,2.7,-0.4,-0.6,0.2
rRNA inh HTS,0,-1,-2,-1,-3
rRNA inh HTS OD600,-6,6,-13,-3,0
rRNA inh HTS RFP,0.8,0.4,8.2,0.1,-3.6

3 compounds from above, arranged by the value under rRNA inh HTS, low to high.
55) CO[C@@H]1CN(C)C(=O)c2cc(NC(=O)C3CCCC3)ccc2OC[C@@H](C)N(Cc2nccs2)C[C@H]1C
53) O=C(c1ccncc1)N1CC[C@@H]2[C@H](CO)Nc3ccc(-c4ccccc4)cc3[C@@H]21
54) Cc1noc(C)c1NC(=O)Nc1ccc2c(c1)C(=O)N([C@H](C)CO)C[C@H](C)[C@H](CN(C)Cc1ccccc1)OCCCC[C@H](C)O2

Screen / compound no.,55,53,54
MLL AF4-AF9 inh,0.2,-0.4,-0.6
rRNA inh HTS,-3,-2,-1
rRNA inh HTS OD600,0,-13,-3
rRNA inh HTS RFP,-3.6,8.2,0.1

Next compounds follow.
56) CC(C)(C)OC(=O)N1CCC[C@@H]1C(=O)NCc1ccccc1
57) CCCC#Cc1ccc([C@H]2[C@H](CO)N3C(=O)CN(C(=O)Nc4cccc(F)c4)C[C@@H]23)cc1
58) C[C@H](CO)N1C[C@H](C)[C@@H](CN(C)C(=O)Nc2ccccc2)Oc2ccc(NC(=O)Nc3ccc(F)cc3)cc2C1=O
59) CCOC(=O)CC1(C)N(S(=O)(=O)c2ccc(C)cc2)c2ccccc2N1S(=O)(=O)c1ccc(C)cc1
60) C[C@H](CO)N1C[C@H](C)[C@H](CN(C)Cc2ccc3c(c2)OCO3)Oc2ccc(NC(=O)Nc3ccc(F)cc3)cc2CC1=O

Screen / compound no.,56,57,58,59,60
MLL AF4-AF9 inh,-6.1,2.6,-1.3,-2.6,-0.5
rRNA inh HTS,14,-16,0,4,-46
rRNA inh HTS OD600,17,-46,7,14,-74
rRNA inh HTS RFP,8.1,31,-2.9,-2.4,-7.2

61) C[C@@H]1CN([C@@H](C)CO)S(=O)(=O)c2ccc(-c3cccc(C(=O)N(C)C)c3)cc2O[C@@H]1CN(C)Cc1ccc2c(c1)OCO2
62) CC(=O)N[C@@H]1CC[C@@H](CCNC(=O)C2CC2)O[C@@H]1CO
63) CSCCC(c1nnnn1C(C)(C)C)N1CCN(C/C=C/c2ccccc2)CC1 (configuration not stated)
64) C[C@@H]1CN([C@H](C)CO)C(=O)Cc2cc(NC(=O)Nc3ccc4c(c3)OCO4)ccc2O[C@@H]1CN(C)C(=O)Nc1ccc2c(c1)OCO2
65) O=C(C[C@@H]1C[C@@H]2c3cc(NC(=O)NC4CCCC4)ccc3O[C@@H]2[C@H](CO)O1)NC1CCCCC1

Screen / compound no.,61,62,63,64,65
MLL AF4-AF9 inh,3.1,-2.4,5.6,1.9,-1.8
rRNA inh HTS,-3,-1,-7,1,1
rRNA inh HTS OD600,1,0,-5,3,5
rRNA inh HTS RFP,7.0,0.1,2.7,-0.5,-3.6

Assay outcomes deposited in PubChem by Broad Institute.
